Source: PubChem
AID923: qHTS Assay for Allosteric/Competitive Inhibitors of Caspase-1: Spectroscopic Profiling in AFC Spectral Region; compound fluorescence, AFC spectral region (405/520 nm); almost no hit is shown here; Potency, µM (series often up to 57.5 µM), without a hit: top-dose fluorescence increase, hits mostly activators; hit rate 1.1% among 75,000; AID 923, 2007; active = well fitted activation curve with a large enough effect; inconclusive = small, poorly fitted or top-dose-only effect;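 also: 0% is about no effect; scaled to a free AFC standard on each plate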
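Compound autofluorescence profiled at 405 nm ex/520 nm em during kinetic caspase 1 run (50 nM enzyme, 5 uM Ac-WEHD-AFC, HEPES pH 7.5, 10 mM DTT). Titration up to 57 uM; baseline from regression intercept, normalized to AFC standard curve.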
TSHR agonist: TSH receptor (human) agonism | P16473 | HEK293-CNG-TSHR cells (CNG channel as cAMP sensor), membrane potential dye, cAMP | Potency, µM (titrated, usually from 57.1 µM), inactives show at the highest dose activation, hits mostly activators | hit rate 0.48% among 73,000; active = well fitted activation curve of enough size with the parental cells flat; inconclusive = any curve in the parental cells; inactive = parental cells flat and receptor cells flat or falling; also: % of control where 0% means no effect; weak receptor curves with flat parental cells got no call and are not listed
Target sequence (P16473 whole entry, looked up): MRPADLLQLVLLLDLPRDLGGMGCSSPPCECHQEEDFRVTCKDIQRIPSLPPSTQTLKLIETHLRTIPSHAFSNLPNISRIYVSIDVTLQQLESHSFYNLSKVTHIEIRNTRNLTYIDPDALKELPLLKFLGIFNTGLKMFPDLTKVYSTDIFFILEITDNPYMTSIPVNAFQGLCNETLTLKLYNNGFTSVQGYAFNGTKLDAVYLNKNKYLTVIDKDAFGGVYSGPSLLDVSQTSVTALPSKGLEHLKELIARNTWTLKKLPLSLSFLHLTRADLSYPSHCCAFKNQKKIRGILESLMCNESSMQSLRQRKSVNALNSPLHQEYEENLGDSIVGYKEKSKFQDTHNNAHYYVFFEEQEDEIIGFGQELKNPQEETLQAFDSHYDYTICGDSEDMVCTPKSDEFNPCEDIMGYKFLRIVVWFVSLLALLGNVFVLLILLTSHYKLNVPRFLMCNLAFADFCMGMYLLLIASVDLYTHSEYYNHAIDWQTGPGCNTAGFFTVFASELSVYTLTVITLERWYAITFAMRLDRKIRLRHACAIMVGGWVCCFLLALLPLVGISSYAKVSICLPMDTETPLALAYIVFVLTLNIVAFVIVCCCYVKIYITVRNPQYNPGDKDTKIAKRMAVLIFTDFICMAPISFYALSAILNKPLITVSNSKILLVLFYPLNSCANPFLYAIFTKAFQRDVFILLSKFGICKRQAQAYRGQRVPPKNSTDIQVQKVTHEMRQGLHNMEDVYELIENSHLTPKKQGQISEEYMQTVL
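HEK 293 cells stably expressing TSHR and a cAMP-gated CNG channel; parental CNG-only cells as counterscreen. Cells preloaded 60 min with membrane potential dye plus 100 uM RO 20-1724, then compound 30 min; fluorescence read at 590 nm.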
The depositor's hits bear a star; ? = inconclusive; · = not tested or not shown; & = joins results of further samples; [ ] = remark or other dose. Potency is read from the fitted curve at half-maximal effect. Only part of the results is shown; count on the stated rates, not on these rows.

SMILES	AID923	TSHR agonist
CC(C)C(C(=O)Nc1ccc(N2CCOCC2)cc1)N1C(=O)c2ccccc2C1=O (stereo unspecified)	1.1%	·
Nc1ccn([C@@H]2O[C@H](CO)[C@@H](OP(=O)(O)O)[C@H]2O)c(=O)n1	0.0%	·
Cc1nc2ccccc2c2oc(C(=O)N3CCN(C(=O)c4ccco4)CC3)cc12	-0.1%	·
C[C@@H]1CCC2[C@](C)(CO)C(O)CC[C@@]2(C)[C@@]12CC[C@](CO)(CCO)O2 (stereo partly specified)	4.5%	·
CC(=O)OC1C[C@]2(C)C(C(C)=O)CCC2C2CCC3=CC(=O)CC[C@@]3(C)C12 (stereo partly specified)	-4.0%	·
Cc1ccc(O)c(C(CCN(C(C)C)C(C)C)c2ccccc2)c1 (stereo unspecified)	-2.0%	·
O=C(Nc1ccc(N2CCN(C(=O)c3ccccc3)CC2)c(Cl)c1)c1ccco1	-1.1%	·
CCC(=O)O[C@H]1C(O[C@@H]2C(C)[C@H](O[C@H]3C[C@@](C)(OC)C(O)C(C)O3)C(C)C(=O)OC(CC)[C@@](C)(O)C(O)[C@H](C)C(=O)C(C)C[C@]2(C)O)OC(C)CC1N(C)C (stereo partly specified)	-6.7%	·
CCOC(=O)c1ccc(N2C(=O)C3CC=C(C)CC3C2=O)cc1 (stereo unspecified)	1.1%	·
Cn1c(=O)c(C(=O)COC(=O)c2cc(C(F)(F)F)nc3c(C(F)(F)F)cccc23)c(N)n(CC2CC2)c1=O	3.5%	·
CC1=CC2C(CC1=O)C(C)=CCC2C(C)C (stereo unspecified)	-2.5%	·
COC1/C=C/OC2(C)Oc3c(C)c(O)c4c(O)c(c(/C=N/N5CCN(C)CC5)c(O)c4c3C2=O)NC(=O)/C(C)=C/C=C/C(C)C(O)C(C)C(O)C(C)C(OC(C)=O)C1C (stereo unspecified)	-1.9%	·
COc1ccc2cc(C(C)C(=O)O)ccc2c1 (stereo unspecified)	-4.0%	·
COc1ccc(O[C@H]2C=C[C@@H](c3ccccc3)O[C@@H]2CO/N=C(\C)CCN2CCCCc3nc(C)c(C)cc32)cc1	0.1%[11.5 µM]	·
Cc1cc(C(=O)NCc2cccnc2)no1	-1.1%	·
CC(=O)N[C@H](Cc1c[nH]c2ccccc12)C(N)=O	-5.4%	·
CNC1C(OC2C(O[C@@H]3C(O)C(O)[C@@H](N=C(N)N)C(O)C3N=C(N)N)OC(C)[C@@]2(O)CO)OC(CO)C(O)C1O (stereo partly specified)	0.1%	·
CC(C)c1cccc(O)c(=O)c1	-0.6%	·
O=[n+]1c2c(n([O-])c3c1CCCC3)CCCC2	3.9%	·
[N-]=[N+]=Nc1nc2c(N)ncnc2n1C1OC(CO)C(O)C1O (stereo unspecified)	-0.3%	·

Brought forward from above: 5 entries, followed by the next part.
SMILES	AID923	TSHR agonist
CC(=O)N[C@H](Cc1c[nH]c2ccccc12)C(N)=O	-5.4%	·
CNC1C(OC2C(O[C@@H]3C(O)C(O)[C@@H](N=C(N)N)C(O)C3N=C(N)N)OC(C)[C@@]2(O)CO)OC(CO)C(O)C1O (stereo partly specified)	0.1%	·
CC(C)c1cccc(O)c(=O)c1	-0.6%	·
O=[n+]1c2c(n([O-])c3c1CCCC3)CCCC2	3.9%	·
[N-]=[N+]=Nc1nc2c(N)ncnc2n1C1OC(CO)C(O)C1O (stereo unspecified)	-0.3%	·
Cc1cc(=O)c2c(O)cc(O)c(C)c2o1	-1.4%	·
COc1ccc(C(=O)Nc2c(N)nc(SCC(=O)N3CCCCCC3)[nH]c2=O)cc1OC	-2.3%	·
CC(C)CCCC(C)C1CCC2C3=CC[C@@H]4CC(O)CC[C@@]4(C)C3CC[C@]21C (stereo partly specified)	-3.2%	·
C=C1CCC2C(C)(CO)C(O)CCC2(C)C1C/C=C1\C(=O)OCC1O (stereo unspecified)	-0.3%	·
O=C(O)c1cc2ccccc2[nH]1	0.5%	·
COC(=O)CC1C2(C)CC34OC5(C)O[C@@]6(C7/C(=C(/O)C(C)C)C(=O)OC(c8ccoc8)[C@]7(C)C(OC(C)=O)C(OC(C)=O)[C@]6(O5)[C@@]13C)C(OC(C)=O)[C@]4(O)C2OC(=O)C(C)C (stereo partly specified)	-0.6%	·
Cc1ccc(N2C(=O)c3ccccc3C2(O)c2ncc[nH]2)cc1 (stereo unspecified)	-2.9%	·
C[n+]1ccccc1/C=N/O	-0.5%	·
O=C(NCc1ccc(Cl)cc1)c1cccnc1	-1.1%	·
CC1(O)CC2C(CC1O)C2(C)C (stereo unspecified)	-0.7%	·

Entries listed so far that contain a Cl atom, in the order listed:
SMILES	AID923	TSHR agonist
O=C(Nc1ccc(N2CCN(C(=O)c3ccccc3)CC2)c(Cl)c1)c1ccco1	-1.1%	·
O=C(NCc1ccc(Cl)cc1)c1cccnc1	-1.1%	·

Next part:
SMILES	AID923	TSHR agonist
CC(=O)OC1CCC2(C)C3=C(CCC2C1(C)C)[C@@]1(C)CCC(C(C)CCC=C(C)C)[C@@]1(C)CC3 (stereo partly specified)	1.7%	·
O=C(CN1CCN(c2ccc(Cl)cc2)CC1)Nc1ccc(F)c(F)c1	1.6%	·
O=c1oc2ccccc2c2oc3cc(O)c(O)cc3c12	0.4%	·
COC(=O)c1cccc(C23CC4(C2)[C@H](CN(Cc2cccnc2)[C@@H]4c2ccccc2)C3c2ccccc2)c1 (stereo partly specified)	2.6%	·
O=C(O)c1cc(O)c2c(c1)C(=O)c1cc(O)cc(O)c1C2=O	-3.1%	·
CC1CCN(c2nnc(N3CCC(C)CC3)c3ccccc23)CC1	-0.4%	·
N[C@H](C(=O)O)C(O)C(O)C(O)CO (stereo partly specified)	3.5%	·
CC1=CC(=O)C2C(C)(C)CCC[C@@]2(C)[C@@]1(O)CCc1ccoc1 (stereo partly specified)	0.6%	·
O=C(O)CN(CCN(CC(=O)O)CC(=O)O)CC(=O)O	0.6%	·
COC(=O)c1ccc(C23CC4(C2)[C@H](CN(C)[C@@H]4c2ccccc2)C3c2ccccc2)cc1 (stereo partly specified)	0.0%	·
C=C1C2CC[C@@]3(C)C(c4ccoc4)OC(=O)C[C@@]13OC1CC(=O)C(C)(C)C(CC(=O)OC)[C@]12C (stereo partly specified)	3.3%	·
C=C1CCC(=O)C(C)CCC2C1CC2(C)C (stereo unspecified)	-0.2%	·
N=c1ccn2c(n1)O[C@@H]1[C@H](O)[C@H](CO)O[C@@H]12	0.3%	·
CCCOc1ccc(NC2=CC(=O)CC(C)(C)C2)cc1	-1.7%	·
COC(=O)[C@@H]1C[C@H]1[C@@H](NS(=O)(=O)c1ccc2ccccc2c1)c1ccccc1	-1.5%	·
C/C=C(\C)C(=O)OC1c2c(ccc3ccc(=O)oc23)OC(C)(C)C1OC(C)=O (stereo unspecified)	-0.2%	·
COC1=CC(=O)C(O)=C/C1=C\C=C\c1ccccc1	-2.0%	·
CC1(C)CC[C@]2(C(=O)O)CC[C@]3(C)C(=CCC4[C@@]5(C)CC[C@H](O)C(C)(C)C5[C@H](O)C[C@]43C)C2C1 (stereo partly specified)	-4.1%	·
CCOC(=O)C1(O)Oc2cc(OC)cc(OC)c2C(=O)C1c1ccccc1 (stereo unspecified)	-1.4%	·
COc1ccc(C)cc1NC(=O)CN1C(=O)c2ccccc2S1(=O)=O	-0.6%	·
CC(C)=CCC/C(C)=C/CC/C(C)=C/CO	-3.0%&-0.9%	·
COc1c(O)cc(O)cc1O	-2.8%	·
Cn1c(=O)c2c(ncn2CC(=O)N2CCN(c3ccccc3F)CC2)n(C)c1=O	2.0%	·
O=C(c1cc(F)c(F)cc1Cl)N1CCOCC1	0.9%	·
CC1OC(n2cc(F)c(=O)[nH]c2=O)C(O)C1O (stereo unspecified)	-2.9%	·
COc1ccc(CNC(=O)[C@H](C)[C@@H]2C[C@@]2(C)[C@@H](NC(=O)OCc2ccccc2)c2ccccc2)cc1OC	2.0%	·
COC(=O)c1c(C)c2c(c(C)c1O)OC(=O)c1c(C)c(Cl)c(O)c(Cl)c1O2	-1.8%	·
COCCNC(=O)COc1ccccc1Cl	2.7%	·
O=S(=O)(/C=C/c1ccccc1)Nc1ccc(N2CCOCC2)cc1	1.9%	·
CC(=O)CC(c1ccccc1)c1c(O)c2ccccc2oc1=O (stereo unspecified)	0.8%	·
CC1(C)C=CC(=O)[C@]2(C)C1CC(=O)[C@]1(C)C2CC[C@@]2(C)C(c3ccoc3)OC(=O)C3OC321 (stereo partly specified)	-0.2%	·
CCOC(=O)c1ccccc1NC(=O)C(C)Oc1ccccc1 (stereo unspecified)	2.0%	·
CCOC(=O)CCCCCCCCCCCCC1C=CCC1 (stereo unspecified)	-2.0%	·
NC(Cc1cnc[nH]1)C(=O)Nc1ccc2ccccc2c1 (stereo unspecified)	-1.4%	·
CN(Cc1cnc2nc(N)nc(N)c2n1)c1ccc(C(=O)NC(CCC(=O)O)C(=O)O)cc1 (stereo unspecified)	6.0%	·
Oc1c(C(c2cccs2)N2CCN(c3ccccc3)CC2)sc2ncnn12 (stereo unspecified)	1.2%	·
CC(C)C[C@@H](CC(=O)N[C@@H](CCC(=O)O)CC(=O)O)NC(=O)[C@@H]1CCCC[C@H]1NC(=O)C[C@H](CCCN)NC(=O)C[C@H](Cc1c[nH]c2ccccc12)NC(=O)[C@@H]1CNCC[C@H]1N	·	11%
CC(C)[C@@H](CC(=O)N[C@@H]1CCCC[C@H]1C(=O)N[C@H](CC(=O)N[C@@H](CCC(=O)O)CC(=O)O)Cc1c[nH]c2ccccc12)NC(=O)C[C@H](Cc1c[nH]c2ccccc12)NC(=O)[C@@H]1CNCC[C@H]1N	·	2%
CC(C)[C@@H](CC(=O)N[C@@H]1CCCC[C@H]1C(=O)N[C@H](CC(=O)N[C@@H](CCC(=O)O)CC(=O)O)Cc1ccccc1)NC(=O)C[C@H](Cc1c[nH]c2ccccc12)NC(=O)[C@@H]1CNCC[C@H]1N	·	9%
NCCC[C@@H](CC(=O)N[C@@H]1CCNC[C@H]1C(=O)N[C@H](CC(=O)N[C@@H](CCC(=O)O)CC(=O)O)Cc1ccccc1)NC(=O)C[C@H](Cc1ccccc1)NC(=O)[C@@H]1CNCC[C@H]1N	·	3%
CC(C)[C@@H](CC(=O)N[C@@H]1CCCC[C@H]1C(=O)N[C@H](CC(=O)N[C@@H](CCC(=O)O)CC(=O)O)Cc1c[nH]c2ccccc12)NC(=O)C[C@H](CO)NC(=O)[C@@H]1CCCC[C@H]1N	·	6%
NCCC[C@@H](CC(=O)N[C@@H]1CCNC[C@H]1C(=O)N[C@H](CC(=O)N[C@@H](CCC(=O)O)CC(=O)O)Cc1ccccc1)NC(=O)C[C@H](CO)NC(=O)[C@@H]1CCCC[C@H]1N	·	5%
CC(C)[C@@H](CC(=O)N[C@@H]1CCCC[C@H]1C(=O)N[C@H](CC(=O)N[C@@H](CCC(=O)O)CC(=O)O)Cc1c[nH]c2ccccc12)NC(=O)C[C@H](Cc1ccccc1)NC(=O)[C@@H]1CCCC[C@H]1N	·	3%
NCCC[C@@H](CC(=O)N[C@@H]1CCNC[C@H]1C(=O)N[C@H](CC(=O)N[C@@H](CCC(=O)O)CC(=O)O)Cc1ccccc1)NC(=O)C[C@H](Cc1ccccc1)NC(=O)[C@@H]1CCCC[C@H]1N	·	6%
CC(C)C[C@@H](CC(=O)N[C@@H](CCC(=O)O)CC(=O)O)NC(=O)[C@@H]1CCCC[C@H]1NC(=O)C[C@H](CCCN)NC(=O)C[C@H](Cc1ccccc1)NC(=O)[C@@H]1CNCC[C@H]1N	·	?
NCCC[C@@H](CC(=O)N[C@@H]1CCCC[C@H]1C(=O)N[C@H](CC(=O)N[C@@H](CCC(=O)O)CC(=O)O)Cc1ccccc1)NC(=O)C[C@H](CO)NC(=O)[C@@H]1CCCC[C@H]1N	·	8%
CC(C)C[C@@H](CC(=O)N[C@@H](CCC(=O)O)CC(=O)O)NC(=O)[C@@H]1CCCC[C@H]1NC(=O)C[C@H](CCCN)NC(=O)C[C@H](CO)NC(=O)[C@@H]1CNCC[C@H]1N	·	?
CC(C)[C@@H](CC(=O)N[C@@H]1CCNC[C@H]1C(=O)N[C@H](CC(=O)N[C@@H](CCC(=O)O)CC(=O)O)Cc1ccccc1)NC(=O)C[C@H](Cc1c[nH]c2ccccc12)NC(=O)[C@@H]1CCCC[C@H]1N	·	7%
CC(C)[C@@H](CC(=O)N[C@@H]1CCCC[C@H]1C(=O)N[C@H](CC(=O)N[C@@H](CCC(=O)O)CC(=O)O)Cc1ccccc1)NC(=O)C[C@H](Cc1ccccc1)NC(=O)[C@@H]1CNCC[C@H]1N	·	?
CC(C)C[C@@H](CC(=O)N[C@@H](CCCN)CC(=O)N[C@@H]1CCCC[C@H]1C(=O)N[C@H](CC(=O)N[C@@H](CCC(=O)O)CC(=O)O)Cc1c[nH]c2ccccc12)NC(=O)[C@@H]1CNCC[C@H]1N	·	5%
